Ba CapD inh: CapD enzyme inhibition; z-score (test concentration not listed); AID 492967; purified CapD enzyme, fluorescence intensity read-out; hits give low values; some hits fall short of the stated cut; hit rate 0.23% among 140,000;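 active means z-score under -4 in either of two replicates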;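 further: stock transfer was 100 nL into about 40 µL; score is relative to mean and spread of the plate; one replicate is shown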
AID504770: growth inhibitors of E. coli YBA685 in a screen for V. cholerae RctB (chromosome II replication) inhibitors | E. coli YBA685 rctB-dependent plasmid, OD600 growth, 3 h; hits give low values | z-score (test concentration not listed) | hit rate 0.27% among 130,000 | AID 504770;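 active means z-score under -2 on both plates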;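 further: wells of about 30 µL received 100 nL stock; score is relative to mean and SD of the test wells; the first replicate is given; strong numbers were not always called active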
* marks the source's active call; other numbers are inactive results; . = not tested or not shown; & = joins results of further samples.

Below each compound – Ba CapD inh, AID504770
(1) CCC(C(=O)Nc1nc2nccc(C)n2n1)c1ccccc1 (centres undefined)
 : -0.26, 0.25
(2) Cc1cccc(OCc2nnc(SCCN3C(=O)c4ccccc4C3=O)o2)c1
 : ., -0.7
(3) COc1ccc2c(-c3cccnc3)cc(=O)[nH]c2c1
 : ., -0.25
(4) CCCCNS(=O)(=O)c1ccc2c(c1)nc(C1CCN(S(=O)(=O)c3cccs3)CC1)n2CCCC
 : ., 1.8
(5) CCCCc1ccc(N(C(C)=O)c2cc3c([nH]c4ccc(CCCC)cc43)c3c2C(=O)c2ccccc2C3=O)cc1
 : -0.32, .
(6) Cc1ccc(NC(=O)CC(C)S(=O)(=O)c2ccc3c(c2)SCC(=O)N3)cc1 (centres undefined)
 : -0.12, -1.1
(7) Cc1ccccc1NC(=S)N(CCC(C)C)C(C)c1ccncc1 (centres undefined)
 : 0.33, 0
(8) Cc1ccc(C(=O)NC2CN3CCC2CC3)cc1NC(=O)c1ccco1 (centres undefined)
 : ., -0.15
(9) CCOc1ccc2nc(N=Nc3c(O)[nH]c(=O)[nH]c3=O)sc2c1
 : ., 3.4
(10) Cc1nnc(SCCn2c(Br)nc3c2c(=O)[nH]c(=O)n3C)s1
 : ., -0.65
(11) Cc1ccc(N2C(=O)CS/C2=C(/C#N)C(=O)NCC2CCCO2)cc1 (centres undefined)
 : ., -0.55
(12) Cn1nc(-c2ccccc2)c(/C=N/O)c1Sc1ccc(Br)cc1
 : -0.025, .
(13) CCc1c(C)c(C#N)c2nc3ccccc3n2c1NCCC(C)C
 : 2.6, -0.95
(14) CC12COC3(C(=O)Nc4ccc([N+](=O)[O-])cc4)CC1CCC32C (centres undefined)
 : -0.73, .
(15) CC1CCCN(CC(C)(C)N)C1 (centres undefined)
 : ., 0.35

Carrying on.
Below each compound – Ba CapD inh, AID504770
(16) CC(C)(C)C(=O)NCc1ccc(C(=O)CSc2nnc(-c3cccs3)n2C2CC2)s1
 : ., 0.1
(17) CCOC(=O)c1c(-c2ccccc2)oc2c1cc(OC(=O)c1ccc(S(=O)(=O)N(C)C)cc1)c1ccccc12
 : 0.78, .
(18) CCOC(=O)[C@H](CCc1ccccc1)N[C@@H](C)C(=O)N1C(C(=O)O)C[C@@H]2CCC[C@@H]21 (some centres undefined)
 : -0.81, .
(19) C/C(=C\c1ccccc1)C(=O)N/N=C/c1cccc(OCc2ccccc2)c1
 : -0.91, .
(20) O=[N+]([O-])c1ccc(Oc2ccccc2F)nc1
 : -0.065, .
(21) CCOC(=O)C1=C(C)NC2=C(C(=O)c3ccccc32)C1c1cc(Cl)c(OC)c(OCC)c1 (centres undefined)
 : -0.19, .
(22) O=C(CCC(=O)N1CCOc2ccccc21)Nc1ccccc1Br
 : -0.24, 0.75
(23) O=C1CCCCCN1Cc1nnc(SCN2C(=O)c3ccccc3C2=O)n1-c1ccccn1
 : ., 1.1
(24) CCOC(=O)C1=C(O)/C(=C/c2ccccc2Cl)SC1=Nc1ccccc1
 : -1.3, .
(25) CCOC(=O)C1CCCN(C(=S)Nc2cccc(Cl)c2)C1 (centres undefined)
 : 0.085, -0.45
(26) O=C(NCCc1cccc(C(F)(F)F)c1)NC1CCN(Cc2ccccc2)C1 (centres undefined)
 : -0.09, .
(27) Cc1cccc(C)c1OC(=O)C(C)N1C(=O)c2ccccc2C1=O (centres undefined)
 : -0.3, 0.1
(28) CC(NC(=O)c1ccc(-n2cccc2)cc1)c1ccccc1 (centres undefined)
 : ., 0.45
(29) c1ccc2c(c1)nc1n2CN(C2CCCCCC2)CN1
 : 0.43, 0.05
(30) O=C(CC1SCCNC1=O)Nc1ccccc1 (centres undefined)
 : ., 0.15

More compounds follow.
Below each compound – Ba CapD inh, AID504770
(31) CC1(C)C2CC=C(/C=N/NC(=O)NC3CCCCC3)C1C2 (centres undefined)
 : ., -0.9
(32) O=C(OCCc1ccccc1Br)N1CCCN(c2nc3ccc(Cl)cc3s2)CC1
 : 0.38, .
(33) COCCN(C(=O)CCC(=O)N1CCC(C)CC1)C1CCN(C)CC1
 : -0.33, .
(34) CCOC(=O)c1c(NC(=O)COc2ccc(Cl)cc2)sc(C(=O)Nc2cccc(Cl)c2C)c1C
 : 0.12, .
(35) O=C(NCCN1C(=O)S/C(=C\c2ccc(Cl)cc2)C1=O)c1oc2ccccc2c1CSc1ncn[nH]1
 : ., 0.3
(36) O=C(c1cccs1)c1coc2c1cc(O)c1ccccc12
 : -0.38, 1.1
(37) CCOC(=O)Cn1cc(Cl)ccc1=O
 : 2, 1.3
(38) CC1CCc2c(sc3ncn(Cc4ccccc4Cl)c(=O)c23)C1 (centres undefined)
 : -0.56, .
(39) CC12C=CC(O1)C1C(=O)N(c3cc(C(F)(F)F)ccc3Cl)C(=O)C12 (centres undefined)
 : 0.025, .
(40) COc1cc(C2NC(=O)N(C)C(C)=C2C(=O)OC2CCCCCC2)cc(Cl)c1O (centres undefined)
 : -0.015, .
(41) Cc1c(C(=O)Nc2ccccc2Br)oc2ccc(S(=O)(=O)N3CCCC3)cc12
 : 73, -0.05
(42) O=C(Cn1ncc2c(=O)oc3ccccc3c21)Nc1ccccn1
 : -0.21, -0.65
(43) CCOc1ccc(N=C2SC(C(=O)Nc3ccccc3)CC(=O)N2Cc2ccc3c(c2)OCO3)cc1 (centres undefined)
 : 0.29, .
(44) C(=N\OCc1cccc(CO/N=C/c2ccco2)c1)/c1ccco1
 : ., -0.85
(45) CCC1(C)CC(CC#N)(c2ccccc2OC)CCO1 (centres undefined)
 : 0.15, 2

(next part)
Below each compound – Ba CapD inh, AID504770
(46) CCC(=O)c1ccc(OCC(O)CN2CCOCC2)cc1 (centres undefined)
 : -0.06, -0.65
(47) CCOC(=O)/C(C#N)=N/Nc1sc(C(=O)OCC)c(C)c1C(=O)OCC
 : 0.97, 0.45
(48) COCCNc1nc(SCC(=O)N2CCC(C)CC2)nc2ccccc12
 : 4.3, .
(49) O=C(O)CNC(=O)c1ccco1
 : 0.23, 0.75
(50) COC(=O)COc1cc2oc(=O)cc(-c3ccccc3)c2cc1Cl
 : 0.51, 1.6
(51) CN(C)/C=C/C(=O)c1ccc(-c2cc(C(F)(F)F)n(C)n2)s1
 : -1.7, 0.15
(52) Cc1ccsc1C(=O)OCC(=O)N(C)c1ccccc1
 : -0.66, -0.4
(53) CCC1Oc2ccccc2N(CC(=O)N(C)Cc2ccccc2)C1=O (centres undefined)
 : -0.49, -0.15
(54) CCOc1ccc(S(=O)(=O)N2CCN(c3ccccc3OC)CC2)c2cccnc12
 : 0.31, .
(55) CC(=O)Nc1c(F)cccc1F
 : -0.36, .
(56) O=C(NCc1ccc(Cl)cc1)c1cc2sccc2n1Cc1ccc(F)cc1
 : 71, 0.8
(57) CC(C)c1ccc(NC(=O)C2CC(=O)N=C(N)S2)cc1 (centres undefined)
 : 0.6, -0.65
(58) S=c1nc[nH]c2c1cnn2-c1ccccc1
 : -0.85, 0.55&1.5
(59) CCOc1c(Br)cc(/C=C2\C(=O)NC(=O)N(c3ccc(OC)cc3)C2=O)cc1OC
 : 0.17, .
(60) O=C1OC(N2CCc3ccccc3C2)c2ccccc21 (centres undefined)
 : -0.81, -0.55

Following part:
Below each compound – Ba CapD inh, AID504770
(61) COc1cccc(NC(=O)CCC(=O)O)c1
 : 0.13, -0.3
(62) Cc1ccc(S(=O)(=O)N2CCCC(NC(=O)N3CCN(c4ccccc4)CC3)C2)cc1 (centres undefined)
 : ., -0.2
(63) COc1ccc(CCN2C(=O)CC(C(=O)Nc3ccccc3OC)SC2=Nc2ccccc2)cc1 (centres undefined)
 : -0.44, .
(64) COc1ccccc1NC1=NCCS1
 : 0.43, 0
(65) O=C(Nc1cccc(-c2nnc3n2CCCCC3)c1)C1=CN2CCS(=O)(=O)N=C2C=C1
 : ., 1.4
(66) CCCN(CCC)C(=O)CSc1nc2ccccc2c(=O)n1Cc1ccc2c(c1)OCO2
 : -0.025, -0.95
(67) Nc1cc(=O)[nH]c(=O)n1-c1ccccc1
 : -0.97, -0.85
(68) CSc1n[nH]c(-c2sccc2OCc2ccc(Cl)cc2Cl)n1
 : 0.26, .
(69) COc1ccc(OS(=O)(=O)c2ccc(C)cc2)c(Br)c1
 : -0.14, .
(70) COc1ccc(N(CC(=O)O)S(=O)(=O)c2ccc3[nH]c(=O)c(=O)[nH]c3c2)cc1
 : -0.96, -1.1
(71) COc1ccccc1C(=O)OCC(=O)NCc1ccccc1
 : 0.26, 1.5
(72) COc1ccc(/C=C/C(=O)N2c3cc(C)ccc3C(C)(c3ccccc3)CC2(C)C)cc1OC (centres undefined)
 : 0.39, .
(73) Cc1c(C(=O)NC2CCCC2)oc2ccc3c(c12)C=CC1(CCCC1)O3
 : 0.59, 0.95
(74) O=C(NCC1COc2ccccc2O1)c1cc2c(s1)-c1ccccc1OC2 (centres undefined)
 : 0.075, -0.1
(75) O=C(NC1CC1)C1CC(=O)N(C2CCCCC2)C1 (centres undefined)
 : 0.17, -0.15

The list continues.
Below each compound – Ba CapD inh, AID504770
(76) CC(CN1CC2CC(C1)c1cccc(=O)n1C2)SC(=N)N (centres undefined)
 : 0.89, 0.5
(77) Cc1cccc(NC(=O)CC2C(=O)NCCN2C(=S)Nc2ccccc2)c1 (centres undefined)
 : 0.2, -0.2
(78) O=C(O)CNC(=O)/C=C/c1ccccc1F
 : -0.46, -0.45
(79) Cc1ccc(NS(C)(=O)=O)cc1N=Cc1cccs1
 : 0.42, .
(80) CCS(=O)(=O)c1c(S(=O)(=O)CC)c2c(C)cccn2c1C(=O)c1ccccc1
 : 5.8, .
(81) CCOc1ccc(NC(=O)CSc2nc3ccccc3n2S(=O)(=O)c2ccc(OC)cc2)cc1
 : 0.21, .
(82) CC1CCCC(NC(=O)CN2C(=O)/C(=C\c3ccccc3Cl)Oc3ccccc32)C1C (centres undefined)
 : -0.22, 1.4
(83) Cc1cc(C(F)(F)F)nc2snc(Br)c12
 : -0.64, 0.6
(84) O=C(/C=C/c1ccccc1)Nc1ccc2c(c1)OCCO2
 : ., -1.4
(85) Brc1ccc(/C=C2\CCC(C3=CCCC3)=C2N2CCOCC2)cc1
 : ., 0.5
(86) CN(C(=O)Cn1cccc1C1=NC(c2ccccc2)CO1)c1ccccc1 (centres undefined)
 : 0.43, 0.45
(87) CC(C)(C)c1ccc(-n2nnnc2-c2ccccc2)cc1
 : -0.12, 1.5
(88) CC(C)c1ccc(C2C3=C(CC(C)(C)CC3=O)NC3=C2C(=O)CC(C)(C)C3)cc1
 : 42, .
(89) CN(C)c1ccc(/C=C2\SC(=S)NC2=O)cc1
 : -0.34, 1.6
(90) C1CCC2(C1)OCC1(CO2)COC2(CCCC2)OC1
 : ., -0.25

Additional results:
Below each compound – Ba CapD inh, AID504770
(91) OCCn1c(CCCCc2nc3ccccc3n2CCO)nc2ccccc21
 : -0.05, -0.7
(92) CN(C)/C=N/S(=O)(=O)c1cc(Cl)sc1Cl
 : 0.12, 1.9
(93) Cc1csc(/C(=N\O)c2csc(C)n2)n1
 : ., 1.4
(94) CCCN1CCC(NN2CCOCC2)CC1
 : 0.11, -0.5
(95) CCC(c1nnnn1C1CCCC1)N1CCN(Cc2ccccc2)CC1 (centres undefined)
 : ., 1.7
(96) CN(Cc1ccccc1)C(=S)Nc1ccc2nc3n(c(=O)c2c1)CCCCC3
 : -0.62, 0.05
(97) CCOC(=O)Cn1nc(-c2ccc(Cl)cc2)ccc1=O
 : 0.12, 0.05
(98) CC(N)c1nc2ccccc2[nH]1 (centres undefined)
 : 0.1, 0.05
(99) COc1ccc(/C=C(\NC(C)=O)C(=O)O)c(Cl)c1OC
 : 0.45, -0.35
(100) Cc1sc2ncnc(OCC(=O)N3CC(C)CC(C)C3)c2c1C (centres undefined)
 : ., -0.1
(101) CN(C)CCNC(=O)c1cccn(Cc2ccc(Cl)c(Cl)c2)c1=O
 : 73, .
(102) COc1ccccc1Cc1nnc(C(=O)NCCc2ccccc2)o1
 : -2.9, -0.35
(103) COC(=O)c1c(N=CN(C)C)c(C#N)c2n1CCCC2
 : -0.56, 0.9
(104) O=C(c1ccc2c(c1)CCN2S(=O)(=O)c1ccccc1)N1CCN(c2ccccc2)CC1
 : 0.16, 0.75
(105) COc1ccc2c(c1)C(=O)N(c1ccccc1)C(=O)C2
 : ., 0.1

Later entries.
Below each compound – Ba CapD inh, AID504770
(106) N#Cc1ccc(-c2cccc(Cl)c2Cl)o1
 : 0.12, -0.65
(107) O=C(c1nnsc1S(=O)c1ccc(Cl)cc1)N1CCCCC1 (centres undefined)
 : -0.045, .
(108) O=C(C1CCCO1)N1CCN(c2ccc(Cl)c(Cl)c2)CC1 (centres undefined)
 : 0.44, 0.25
(109) CC(=O)N1CCN(C(=O)c2cc(-c3ccc(C)cc3)nc3ccccc23)CC1
 : 52, -0.35
(110) CC(C)OC(=O)c1cc2nc(-c3ccccc3)cc(C(F)(F)F)n2n1
 : 10, -0.25
(111) CCOc1ccccc1NC(=O)c1c(NC(=O)c2ccccc2)sc2c1CCCCC2
 : 3.4, .
(112) O=C(Cc1ccc(Cl)cc1)NCC1COC2(CCCC2)O1 (centres undefined)
 : ., -1.1
(113) Cc1ccc(N(C(=O)c2ccccn2)C2(C(=O)Nc3c(C)cccc3C)CCCCC2)cc1
 : 0.055, -0.8
(114) CC1CCN(CC(=O)N2c3ccccc3C(C)(c3ccccc3)CC2(C)C)CC1 (centres undefined)
 : 0.18, .
(115) Cc1c(C)c(O)c(Cc2nc3ccccc3[nH]2)c(C)c1O
 : ., -0.6
(116) c1ccc(-c2oc3ncn4ncnc4c3c2-c2ccccc2)cc1
 : 18, 1.4
(117) CCN(CC)C(=O)c1sc2ncnc(N3CCN(c4ccccc4)CC3)c2c1C
 : -0.26, .
(118) Cc1cc(C(=O)Nc2ccc(Cl)cc2)no1
 : -0.96, -1.6
(119) O=C1CN(CC(=O)NC(=O)NCc2ccccc2)CCN1
 : ., -0.5
(120) C=CCn1c2ccccc2c2nnc(SCC(=O)Nc3ncc([N+](=O)[O-])s3)nc21
 : -0.12, .

Screens deposited in PubChem BioAssay by ICCB-Longwood Screening Facility, Harvard Medical School.
